NPR1 antag – blocks ANP-stimulated signaling of human Npr1 receptor. P16066. HEK293 hNpr1 GloSensor cGMP, ANP-stimulated luminescence. hit rate 1.6% among 76,000. Potency, µM (titrated, usually from 46.3 µM), without a hit: top-dose activity change, negative = inhibition, actives largely listed as inhibitors; active = well fitted inhibition curve with a large enough effect; inconclusive = small, poorly fitted or top-dose-only effect; inactive = no such curve, though single readings can be large or run the other way;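 also: nearly all actives have a fitted effect of over 60% in size; nearly all hits also lower the signal before the agonist is added; a reference antagonist and vehicle were the controls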
Target sequence (P16066 whole entry, looked up): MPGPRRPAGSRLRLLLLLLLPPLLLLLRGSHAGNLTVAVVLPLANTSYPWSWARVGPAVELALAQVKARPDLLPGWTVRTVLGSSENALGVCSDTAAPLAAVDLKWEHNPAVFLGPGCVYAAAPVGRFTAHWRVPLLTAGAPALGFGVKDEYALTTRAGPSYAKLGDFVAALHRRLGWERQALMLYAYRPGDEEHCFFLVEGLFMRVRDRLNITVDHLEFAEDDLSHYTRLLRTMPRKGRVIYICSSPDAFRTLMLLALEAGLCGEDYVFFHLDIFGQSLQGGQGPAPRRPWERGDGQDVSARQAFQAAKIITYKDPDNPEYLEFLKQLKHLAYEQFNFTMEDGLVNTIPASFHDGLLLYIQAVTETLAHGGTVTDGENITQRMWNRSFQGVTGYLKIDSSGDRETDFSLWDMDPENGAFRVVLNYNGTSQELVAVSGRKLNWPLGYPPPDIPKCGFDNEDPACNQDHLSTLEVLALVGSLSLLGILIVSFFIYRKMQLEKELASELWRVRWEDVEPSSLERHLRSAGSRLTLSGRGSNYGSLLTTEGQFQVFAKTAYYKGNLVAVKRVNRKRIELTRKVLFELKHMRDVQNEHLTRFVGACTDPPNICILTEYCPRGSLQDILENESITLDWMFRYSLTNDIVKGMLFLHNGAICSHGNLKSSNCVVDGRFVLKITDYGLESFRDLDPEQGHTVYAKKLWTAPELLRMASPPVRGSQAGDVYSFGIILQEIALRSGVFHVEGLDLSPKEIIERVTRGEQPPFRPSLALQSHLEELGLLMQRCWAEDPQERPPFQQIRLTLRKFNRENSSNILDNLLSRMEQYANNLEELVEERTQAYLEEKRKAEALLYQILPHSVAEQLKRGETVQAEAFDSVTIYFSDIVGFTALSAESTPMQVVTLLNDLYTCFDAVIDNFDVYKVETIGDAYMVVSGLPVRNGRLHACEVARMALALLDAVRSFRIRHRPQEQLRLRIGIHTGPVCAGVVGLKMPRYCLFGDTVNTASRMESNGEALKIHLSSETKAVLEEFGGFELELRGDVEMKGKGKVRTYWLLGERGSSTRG
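HEK293 cells stably expressing human Npr1 and cGMP GloSensor pGS-40F, loaded 2 h with 2% GloSensor reagent, given compound 30 min at room temperature. Luminescence read before and 20 min after 0.1 nM hNppA.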
Starred values were filed as active, the others as inactive; ? = inconclusive; & = joins results of further samples; [ ] = dose if it differs, or a comment. % is scaled to controls: 0 for no effect and ±100 for the full control effect; potency is read from the fitted curve at half-maximal effect. This is a subset; count on the stated rates, not on these rows.

molecule | NPR1 antag
Cn1nc(C2CCN(C(=O)Cc3cccc(F)c3)CC2)c2c1CCOC2 | 1.1%
O=C(c1ccccc1)N1CCn2c(nn(-c3ccc(F)cc3)c2=O)C1 | 2.4%[70.6 µM]
Cc1cc(CNC(=O)c2cc(-c3ccc(N4CCOCC4)cc3)cc3c2OCCN3C)no1 | 7.0%
COC[C@@H]1[C@H](NC(=O)c2cc(N3CCCCC3)ccc2Cl)[C@@H]2CCO[C@H]12 | 0.8%
COc1ccc(F)c(CN2CCCC(O)(CN3CCC(C)CC3)C2=O)c1 (stereo unspecified) | 8.9%
CC(C)CN1C(=O)CCc2cc(NC(=O)c3ccc(N(C)C)cc3)ccc21 | -28.8%
COc1ccc(F)cc1[C@@H](NC(=O)C1=NNC(=O)CC1)C1CC(O)C1 (stereo partly specified) | -0.2%
CCn1nc(C(C)C)cc1C(=O)NCCS(=O)(=O)N1CCCC1 | 2.5%
COC[C@@H]1CN(C(=O)c2n[nH]c3ccccc23)C[C@H]1c1nc(C)no1 | 3.4%
Cc1ccc(-c2cc(N3CCCN(C(=O)c4ccco4)CC3)n[nH]2)cc1C | -10.3%

(listing goes on)
molecule | NPR1 antag
COc1cccc(CN2CCn3c(nnc3[C@@H]3C[C@@H](O)CN3Cc3cccnc3)C2)c1 | 1.3%
COc1cccc(C(=O)N2CCCC(c3noc(COc4ccccc4)n3)C2)c1 (stereo unspecified) | -6.2%
O=C(CCC1CCN(C(=O)c2ccccc2)CC1)Nc1ccccc1F | -8.7%
COc1ccc(C2Cn3nnc(C(=O)N4CCN(C(=O)c5ccc(C)cc5C)CC4)c3CO2)cc1 (stereo unspecified) | 14.1µM*
Cn1nccc1C(=O)N1C[C@@H](COc2ccccc2)[C@H](C(N)=O)C1 | -9.2%
O=C(Cc1ccc(OC(F)(F)F)cc1)NCc1nnc2ccc(-c3ccc(F)cc3)nn12 | -8.4%
Cc1ccc(N2CC(c3noc(-c4cc(F)cc(F)c4)n3)CC2=O)cc1 (stereo unspecified) | 0.4%
Fc1ccc(-c2ccc3ncc(Nc4cc(F)cc(N5CCOCC5)c4)n3n2)cc1 | ?
O=[S+]([O-])(c1cccc(C(F)(F)F)c1)N1CCC2(CCN(Cc3cccs3)c3ccccc3O2)CC1 | 23.3%&-10.4%
Cc1ccc(N2C(=O)N[C@@H]3CCN(C(=O)c4ccc(C(F)(F)F)cc4)[C@@H]3C2=O)cc1 | -2.2%[70.6 µM]

An excerpt from above in order of length of the SMILES, ascending.
molecule | NPR1 antag
Cc1ccc(N2CC(c3noc(-c4cc(F)cc(F)c4)n3)CC2=O)cc1 (stereo unspecified) | 0.4%
Cn1nccc1C(=O)N1C[C@@H](COc2ccccc2)[C@H](C(N)=O)C1 | -9.2%
O=[S+]([O-])(c1cccc(C(F)(F)F)c1)N1CCC2(CCN(Cc3cccs3)c3ccccc3O2)CC1 | 23.3%&-10.4%

Continued.
molecule | NPR1 antag
COc1ccccc1CC(=O)N1CCC2(CC1)N=C(c1ccc(Cl)cc1)NO2 | ?
COc1cccc([S+](=O)([O-])N2CCC3(C2)N=C(c2ccccn2)C(=O)N3)c1 (stereo unspecified) | 0.0%
CCNC(=O)N1CCCOCCNC(=O)[C@@H]2CCC[C@@H]21 | -2.9%
NS(=O)(=O)c1ccc(CCNC(=O)c2cc(-c3ccc[nH]3)n[nH]2)cc1 | 3.9%
O=C(Nc1ccc(F)cc1F)N[C@H]1C[C@H]2C(=O)NC[C@@H](CCC(=O)N3CCCCC3)N2C1 | 1.9%
c1cncc(CN2CC[C@H](c3nnc(Cc4c[nH]c5ccccc45)o3)C2)c1 | ?
Cc1cccc(OC[C@H]2C[C@@H](NC(=O)Nc3ccccc3)[C@H](O)[C@@H]2O)n1 | -18.2%[70.6 µM]
O=C(Nc1ccc(F)c(Cl)c1)c1cc2n(n1)CC(c1ccc3c(c1)OCO3)OC2 (stereo unspecified) | ?
CC(=O)N1CCC(N2CCC[C@H]2c2nc(-c3ccc(-c4ccncc4)nc3)no2)CC1 | 1.9%[70.6 µM]
COCCOCC1(CNCc2cn(C)c3ccccc23)C[C@@H](O)[C@@H](O)C1 (stereo partly specified) | -0.8%[70.6 µM]

(further entries)
molecule | NPR1 antag
Cn1c(CN2CCOCC2)nnc1C1CCCN(C(=O)c2cc[nH]c2)C1 (stereo unspecified) | -5.1%
COc1cccc(C2C(C#N)=C(N)Oc3n[nH]c(C)c32)c1 (stereo unspecified) | -20.1%
COc1ccc(C(=O)N[C@@H]2CCC[C@@H]2C(=O)NCCCOC(C)C)cc1 | 0.5%
COC(=O)[C@@H]1Cc2ncn(Cc3ccc(OC)cc3)c2CN1S(=O)(=O)Cc1ccccc1 | 4.3%
Nc1nccc(N2CC[C@H]3N(CCOCCO)CCC[C@]3(C(=O)O)C2)n1 | 2.4%
COCCc1noc(CC2CCOC3(CCN(C(=O)C4CCCC4)CC3)C2)n1 (stereo unspecified) | 0.2%
CCc1nc2c(=O)n(CC(=O)N3CCN(C4CCCCC4)CC3)nc(C)c2s1 | -8.4%
CN1CCOc2c(C(=O)NCc3cccnc3)cc(-c3ccccc3)cc21 | 2.2%[70.6 µM]
CC(C)(C(=O)N1CCc2[nH]nc(-c3ccc(F)c(F)c3)c2C1)n1cccc1 | -22.5%
CC(C)CCN1C[C@@H](CO)[C@H](c2nc(-c3cccnc3)no2)C1 | 0.5%

Retrieved by compound from above:
molecule | NPR1 antag
Cn1c(CN2CCOCC2)nnc1C1CCCN(C(=O)c2cc[nH]c2)C1 (stereo unspecified) | -5.1%
COCCc1noc(CC2CCOC3(CCN(C(=O)C4CCCC4)CC3)C2)n1 (stereo unspecified) | 0.2%
CC(C)(C(=O)N1CCc2[nH]nc(-c3ccc(F)c(F)c3)c2C1)n1cccc1 | -22.5%
CCc1nc2c(=O)n(CC(=O)N3CCN(C4CCCCC4)CC3)nc(C)c2s1 | -8.4%
CC(C)CCN1C[C@@H](CO)[C@H](c2nc(-c3cccnc3)no2)C1 | 0.5%

Continuation:
molecule | NPR1 antag
COC(=O)CCNC(=O)C1c2ccccc2C(=O)N(Cc2ccccc2)C12CCCC2 (stereo unspecified) | 0.7%
O=C(Cc1ccccc1)N1CCC(N2CC3CC(C2)[C@H]2CCCC(=O)N2C3)CC1 (stereo partly specified) | -7.4%
O=C(C1CCC1)N1CCC(n2cc(-c3nc(-c4ccccc4)no3)nn2)CC1 | ?
CCN1CCC(CCNC(=O)C2N(C(C)C)C(=O)C23CCCCC3)CC1 (stereo unspecified) | -2.9%
COc1ccc(Nc2ccc3nnc(-c4ccccn4)n3n2)cc1 | -22.9%[70.6 µM]
O=C1CCCN1CCCN1C(=O)[C@@H]2C[C@@H](O)CN2C2(CNC2)C1=O | -0.4%[70.6 µM]
Cc1nc(C)c(C(=O)NCC23CCCC=C2N(C)C(=O)CC3)s1 (stereo unspecified) | 6.6%
COCc1cc(CC2(NCc3ccc(F)cc3)COC2)no1 | -11.7%[70.6 µM]
Cc1ccc([S+](=O)([O-])NC2CCN(c3nc4ncccc4o3)CC2)cc1 | -2.7%
CCCCS(=O)(=O)N1CCC2(CC1)CN(C(C)=O)CC2COC (stereo unspecified) | 7.9%

Carrying on.
molecule | NPR1 antag
O=[S+]1([O-])NCC2(CCCN(Cc3ccc(OC(F)(F)F)cc3)C2)Nc2ccccc21 (stereo unspecified) | -24.7%
COc1cccc(CN2CC3(C2)C(=O)N(Cc2ccccc2F)C(=O)[C@@H]2C[C@@H](O)CN23)c1 | -3.5%
COCc1nc(C2CCN(C(=O)c3ccn[nH]3)C2)no1 (stereo unspecified) | 9.6%
COc1ccc(C(=O)N2CCC(n3cc(-c4nc(C)no4)nn3)CC2)cc1F | 10.0%
COc1ccc(-c2cc(-c3cccc(O)c3)cn3cncc23)cc1 | -20.7%[70.6 µM]
Cc1ccc(-c2noc(CCCC(=O)N3CCC(CCOc4ccccc4F)C3)n2)cc1 (stereo unspecified) | 4.47µM*
COc1cccc(-c2ccc(S(=O)(=O)N3CCSCC3)cc2)n1 | -4.8%
Cc1cc(Cl)ccc1S(=O)(=O)N1C[C@H](F)C[C@@H]1C(=O)N1CCOCC1 | 1.0%
COc1ccc(-c2ccc3nnc(CNC(=O)C(C)Oc4ccc(Cl)cc4)n3n2)cc1 (stereo unspecified) | -23.7%
Clc1ccc(C2Cn3nnc(-c4nc(-c5cccc(Cl)c5)no4)c3CO2)cc1 (stereo unspecified) | -10.2%

Other structures.
Molecule	NPR1 antag
Cc1c(Cl)cccc1NC(=O)N1CCC(OC2CCN(S(C)(=O)=O)CC2)CC1	-19.2%
CN1CCC2(CCC1=O)CN(C(=O)N1CCOCC1)CCN2C (stereo unspecified)	1.6%
CCn1ncc(CN2CC[C@H]3C(=O)NCCCCCCN(Cc4ccncc4)[C@@H]3C2)c1C	-0.1%
CN1C(=O)C2(CCN(C(=O)Cc3ccccc3Cl)C2)c2ccccc21 (stereo unspecified)	2.1%
COCCOC1CCOC2(CCN(C(=O)c3ccco3)CC2)C1 (stereo unspecified)	11.8%
COc1ccc(-c2cnc([C@@H]3COCCN3Cc3cccc(C#N)c3)[nH]2)cc1	-1.3%[70.6 µM]
CC(c1n[nH]c(=O)n1CCC(=O)O)n1cccn1 (stereo unspecified)	-1.3%
O=C(N[C@H]1CCN2C(=O)c3cc(-c4ccc(F)cc4F)ccc3NC(=O)[C@@H]2C1)c1cccs1	1.8%

(cont.)
Molecule	NPR1 antag
O=C(Nc1ccc([C@H]2OCC(=O)N(C3CCOCC3)[C@@H]2CO)cc1)c1ccc(C(F)(F)F)cc1	-0.2%
CCC(=O)NCC1Cn2cccc2C(=O)N1Cc1ccccc1 (stereo unspecified)	-0.7%
CCCN(CC1CCOC1)S(=O)(=O)c1cc(C)ccc1C (stereo unspecified)	-0.1%
Cc1oc2c(c1C(=O)NC(C)c1ccco1)CN(Cc1ccc(F)cc1)CC2 (stereo unspecified)	-17.9%
O=C(Nc1cccnc1)c1nc2c(o1)CCN(Cc1cccs1)CC2	-19.2%[70.6 µM]
CC1=C[C@@H](CNC2CC2)[C@H](C(C)C)C[C@H]1Cc1nnc(-c2ccc(C)cc2)o1	?
Cn1cnc2cc(-c3ccc(F)cc3)cc(C(=O)NCCCn3ccnc3)c21	-1.8%[70.6 µM]
O=C1CCN(C(=O)C2CCN(C(=O)COc3ccc(F)cc3)CC2)CCCCCCN1	4.1%

Continuation.
Molecule	NPR1 antag
CN(Cc1ccccc1)C(=O)[C@@H]1C[C@@H](c2ccc(F)cc2)N([S+](=O)([O-])c2ccccc2)C1	2.9%
COCC(=O)NC1CCC12CCN(S(=O)(=O)Cc1ccccc1)CC2 (stereo unspecified)	-1.1%
Cc1nc(C)c(CC(=O)NC2CC(c3cc(=O)[nH]cn3)C2)s1 (stereo unspecified)	-1.5%
CCn1c2c(c(=O)n1Cc1ccccc1)CCN(C(=O)COc1ccccc1)C2	2.1%[70.6 µM]
O=c1c2c(CO)c(-c3ccc(F)cc3)nn2ccn1Cc1cc(F)ccc1F	?
CCc1noc(-c2ccn3c(CNC(=O)Cc4ccc(F)cc4)nnc3c2)n1	9.7%
Cc1ccccc1N1Cc2c(NCC3CCCCCC3)ncnc2N(C)CC1=O	-15.3%
CCN(CC)C(=O)C[C@@H]1c2nc(NC(=O)c3ccc(OC)cc3)sc2C[C@@H]2[C@](C)(CO)[C@H](O)CC[C@]21C	1.3%

Further records follow.
Molecule	NPR1 antag
O=C(O)c1cc(-c2cccc(CO)c2)cc(S(=O)(=O)N2CCOCC2)c1	-1.2%
O=C(c1cccs1)N1CCN(c2nnc3ccccn23)CC1	3.1%
Cc1ccc(-c2ncc(C(=O)Nc3ccccc3F)c(-c3ccncc3)n2)cc1	-13.8%
Cc1ccc(C(=O)N2CC[C@H](N3CCN(C)CC3)[C@H](CCCO)C2)cc1C	1.0%
O=C1CC(c2ccccc2)N(Cc2ccncc2)CCCN(C(=O)CC2CCCCC2)CCN1 (stereo unspecified)	0.1%
O=C(C1CC(=O)N(c2n[nH]c3cccc(F)c23)C1)N1CCN(Cc2ccccc2)CC1 (stereo unspecified)	-6.6%
CC(=O)c1cc(C(=O)NCc2c(C)ncc3c2CCNC3)[nH]n1	1.0%
Cc1ccccc1CNC(=O)c1ccc2c(c1)N(C)C1CCCCN1C2=O (stereo unspecified)	-6.4%

Carrying on.
Molecule	NPR1 antag
CC(C)C(=O)N1CCC(Oc2ncccc2C(=O)N(C)C)C1 (stereo unspecified)	4.7%
c1cc(CN2CCC(N3CC(OCC4CC4)C34CCOCC4)CC2)ccn1 (stereo unspecified)	6.4%
c1cc(-c2nc3c(c(NCCCn4ccnc4)n2)CCNCC3)ccn1	-0.4%
COc1cc(OC)cc(-c2onc(C)c2C(=O)NCCCOC(C)C)c1	-0.2%
FC(F)(F)c1ccc2c(c1)nc1n2[C@@H](CNCc2cccnc2)COC1	-0.1%[70.6 µM]
CC(C)N1CC2(C1)C(=O)N(Cc1cccc(Cl)c1)C(=O)[C@@H]1C[C@@H](O)CN12	4.0%[70.6 µM]
COCCN1CCOC[C@H]2CCN(C(=O)C3CCC3)C[C@H]21	1.8%
CC1=Nc2cc(C(=O)NC(C)c3ccc4c(c3)OCCO4)ccc2Sc2ccc(Cl)cc21 (stereo unspecified)	-22.5%

(next part)
Molecule	NPR1 antag
CN1CC(=O)N(C2CCC2)Cc2c1ncnc2N1CCC(Cc2ccccc2)CC1	-11.0%
COc1cccc(NC(=O)C2(Cc3ccccc3)CCCCC(=O)N2)c1 (stereo unspecified)	-3.4%
Cc1ccc(NS(=O)(=O)c2ccccc2)c(=O)n1CC(=O)NC1CCCC1	-0.1%
COc1cccn(CC(=O)N(C)Cc2csc(C(C)C)n2)c1=O	-4.0%
CCn1ncc(CN2CCC(N3C(=O)C4(CCCC4)C3c3scnc3C)CC2)c1C (stereo unspecified)	2.2%
CCOC(=O)C1(Cc2ccccc2F)CCCN(C(=O)CCc2c[nH]c3ccccc23)C1 (stereo unspecified)	?
C1CCNC(CN2CCOCC2)CC1 (stereo unspecified)	0.3%
O[C@@H]1C[C@@H](c2nc(Cc3ccccc3)no2)N(Cc2ccccc2)C1	4.0%[70.6 µM]

Bioassay records: PubChem, National Center for Advancing Translational Sciences (NCATS)
